# T cruzi inh = T. cruzi replication inhibition; T. cruzi beta-gal in NIH3T3, luminescence, 90 h; inhibition, % (no concentration beside the values); 300,000 compounds, 1.4% hits; AID 1885;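 active means mean inhibition across valid replicates above about 55%, limit read from the data; inconclusive means mean below that limit but half or more replicates reach it; inactive means mean below it, under half of replicates reach it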;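 further: signal also drops with host cell toxicity which is not excluded here; 0% = plate median of DMSO wells and 100% = zero luminescence signal; higher percent means less beta-gal luminescence so fewer parasites; stock transfer was 50 nL into about 50 µL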
# MLL AF4-AF9 inh = MLL-AF4/AF9 protein interaction inhibition. P42568. AlphaScreen, biotin-AF4 peptide binding to FLAG-AF9. inhibition, % at 10 µM. 350,000 compounds, 0.47% hits;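 active means every replicate reaching a set inhibition limit, whatever the replicate mean, cut at about 25% in these data; inconclusive means mean inhibition reaches that limit but some replicates miss it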;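 further: 0% = plate neutral control median and 100% = total signal loss; the record names both 10 and 1 µM as test concentration; the first replicate is given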
# Target sequence (P42568 whole entry, looked up): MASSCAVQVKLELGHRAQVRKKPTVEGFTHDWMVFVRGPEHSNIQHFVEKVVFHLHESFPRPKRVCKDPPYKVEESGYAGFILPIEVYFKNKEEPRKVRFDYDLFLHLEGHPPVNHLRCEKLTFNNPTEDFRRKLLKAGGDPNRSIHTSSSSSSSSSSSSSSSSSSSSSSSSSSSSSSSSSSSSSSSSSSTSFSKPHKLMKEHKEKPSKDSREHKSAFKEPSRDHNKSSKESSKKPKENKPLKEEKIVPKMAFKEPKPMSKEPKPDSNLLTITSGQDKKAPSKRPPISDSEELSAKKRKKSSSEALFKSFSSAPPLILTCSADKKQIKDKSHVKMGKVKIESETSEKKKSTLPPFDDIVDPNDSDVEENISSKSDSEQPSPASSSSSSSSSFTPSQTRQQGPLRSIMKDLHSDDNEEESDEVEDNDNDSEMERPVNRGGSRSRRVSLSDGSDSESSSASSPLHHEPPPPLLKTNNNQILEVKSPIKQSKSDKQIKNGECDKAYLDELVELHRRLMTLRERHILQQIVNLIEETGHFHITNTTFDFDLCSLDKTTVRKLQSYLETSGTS
# Beta apoptosis = blocks beta cell apoptosis | INS-1E cytokine-induced death, ATP luminescence, 48 h; percent of positive-control rescue, neutral wells zero | protection from apoptosis, % (no concentration beside the values) | 300,000 compounds, 0.8% hits;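 active means all replicates at 75% or more, or half of them and the mean; inconclusive means half reach 75% but not the mean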;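 further: 0% = cytokine-treated negative control wells and 100% = positive control rescue; higher means more ATP so stronger rescue from cytokine killing; wells of about 40 µL received 100 nL stock; the first replicate is given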
# rRNA inh HTS = inhibits bacterial ribosomal RNA function over humanized ribosomes; 350,000 compounds, 1.6% hits; E. coli WT GFP vs humanized-ribosome RFP mutants, fluorescence, 24 h; hits give low values; DMSO median 0, no signal -100; GFP signal change (wild-type ribosome), % (no concentration beside the values);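 active means significant combined selectivity score with lowered wild-type GFP, culture density cut under 30%, mutant RFP and density less affected; inactive means any of these conditions unmet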; further: one replicate is shown; some compounds called inactive have numbers as strong as hits
# Vif TR-FRET = HIV-1 Vif–A3G interaction blockers – biochemical, TR-FRET, GST-Vif 1-94, biotin-A3G peptide, dose response retest, primary screen (AID 1117319); one-dose inhibition, %; IC50 in µM for titrated hits; 260,000 compounds, 0.57% hits; TR-FRET GST-Vif / biotin-A3G peptide binding; higher % means a stronger effect; test concentration not given here; strong numbers were not always called active;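 active means above the screen mean plus three standard deviations and confirmed in dose response; inconclusive means results disagree or hit not tested in dose response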;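 further: Vif residues 1-94 fused to GST binding biotinylated APOBEC3G peptide 110-148; 0% = full assay without inhibitor and 100% = GST in place of GST-Vif; retest series ran down from 100 µM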
# Calb FLC = C. albicans growth modulation with fluconazole | C. albicans CaCi-2 (fluconazole-resistant clinical isolate) + fluconazole, Alamar Blue growth, 48 h | growth inhibition, % (concentration not given with the values) | 300,000 compounds, 0.57% hits;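 active means most replicates above 75%; inconclusive means exactly half above 75%; inactive means most below 75%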;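 further: all wells also contain fluconazole at 8 µg/ml as a sub-toxic cotreatment; 0% = median of DMSO wells and 100% = median of geldanamycin control wells; wells of about 8 µL received 7.5 nL stock; the first replicate is given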
# A1 inh = inhibitors of the anti-apoptotic protein A1, read as caspase activation; 330,000 compounds, 0.066% hits; caspase activation, % (concentration not given with the values); MEF A1-2A-BIM cells, Caspase-Glo 3/7 luminescence, 3 h; percent of clofoctol response, vehicle zero;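 active means over half of replicate activation scores above 10%, or exactly half above 10 with the replicate mean above 10; inconclusive means replicate mean below 10 yet half the replicates above 10; inactive means over half of replicates below 10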;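 further: wells of about 30 µL received 50 nL stock; many hits fall short of the cut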
# RanGTP-Imp inh = inhibitors of RanGTP-importin-beta interaction, primary screen, biochemical, FRET, CFP-Ran, YFP-importin-beta, homogeneous. 300,000 compounds, 1.1% hits. cell-free CFP-Ran/YFP-importin-beta FRET ratio. inhibition, % (no concentration beside the values);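 active means most replicates above 15%; inconclusive means exactly half above 15%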;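 further: 0% = DMSO wells and 100% = Ran loaded with GDP instead of GTP; wells of about 40 µL received 100 nL stock; the first replicate is given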
# rRNA inh HTS OD600 = recorded beside rRNA inh HTS, whose call it bears; OD600 change, %; measured here: OD600 growth;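 optical density of the mix in the first replicate; 0 = DMSO median and -100 = no signal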
# rRNA inh HTS RFP = recorded beside rRNA inh HTS, whose call it bears; RFP signal change, %; measured here: RFP humanized mutant strains;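 first replicate; 0 = DMSO median and -100 = no signal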
# * marks the source's active call; other numbers are inactive results; ? = inconclusive; nt = not tested or not shown; & = joins results of further samples. Not all compounds are listed, so the mix of outcomes need not match the whole.
nr	Compound	T cruzi inh	MLL AF4-AF9 inh	Beta apoptosis	rRNA inh HTS	rRNA inh HTS OD600
1	COc1ccc(NC(=O)c2ccc3c(c2)OCO3)cc1Cl	-3	nt	16	nt	nt
2	C=CCn1c(-c2ccoc2)n[nH]c1=S	-2	nt	-6	nt	nt
3	Cc1cccc(CSc2nnc(-c3ccco3)o2)c1	6	1.1	-6	-27	-38
4	CCN(CC(=O)Nc1ccccc1OC)C(=O)CN1C(=O)NC(C)(c2ccccc2)C1=O (centres undefined)	nt	6.2	-5	7	14
5	CCC(C)NC(=O)c1ccc([N+](=O)[O-])c(Cl)c1 (centres undefined)	-11	-6.9	-9	8	1
6	Cc1cc[n+](-c2[nH]c(=O)sc2/C=N/N=C(\[O-])c2ccccc2)cc1C	-7	-1.1	nt	38	9
7	Cc1sc2ncn(CC(=O)NCCCC(=O)NCc3ccc(F)cc3)c(=O)c2c1C	8	-3.0	2	1	3
8	Cc1csc(=O)n1CC(=O)OCC(=O)Nc1ccc(C(N)=O)cc1	nt	3.8	-4	4	4
9	COc1cccc(CNC(=O)N2CCN(c3ccccc3Cl)CC2)c1	-14	0.3	0	nt	nt
10	N#CCCN(C(=O)c1ccc2c(=O)n3c(nc2c1)CCCCC3)c1ccccc1	-8	-4.2	-6	1	7
11	CCOC(=O)c1c(C)[nH]c(N=Nc2ccc(C)cc2C)c1C	23	nt	1	nt	nt
12	CCc1ccccc1NC(=O)CCc1nc(-c2ccc(C)cc2)no1	13	nt	8	nt	nt

nr	rRNA inh HTS RFP	Vif TR-FRET	Calb FLC	A1 inh	RanGTP-Imp inh
1	nt	-10%	-1	-7.8	-4.5
2	nt	23%	-13	-0.1	-1.8
3	-6.1	-5%	-3	0.5	-2.1
4	-0.4	-7%	nt	-0.2	nt
5	-0.9	nt	-4	0.2	-2.2
6	0.3	?	-8	nt	?
7	2.0	nt	-3	-0.4	1.6
8	0.8	10%	nt	-0.1	nt
9	nt	-2%	1	-0.3	-2.1
10	-0.9	nt	-6	-0.1	-2.3
11	nt	-8%	-4	-1.0	-3.6
12	nt	1%	8	0.1	3.0

# The results go on:
nr	Compound	T cruzi inh	MLL AF4-AF9 inh	Beta apoptosis	rRNA inh HTS	rRNA inh HTS OD600
13	COc1ccccc1NC(=O)c1cnc(SCC(=O)NCCc2ccccc2)n(C)c1=O	3	-0.4	-9	15	8
14	O=C(N/C(=C\c1ccc(F)cc1)C(=O)N1CCCCCC1)c1ccccc1	4	-2.2	6	-11	0
15	O=C(Cc1ccc([N+](=O)[O-])cc1)N/N=C/c1cccs1	-16	-0.4	-2	10	15
16	COc1ccc(C2N(c3ccc(OC)cc3)C(=S)N3CCCN23)cc1 (centres undefined)	19	nt	0	nt	nt
17	CSCc1c(C(=O)Nc2ccc3c(c2)OCO3)oc2ccccc12	20	8.1	5	-17	-31
18	CCCCCCn1c(COc2ccccc2F)nnc1SCC(=O)N1c2ccccc2NC(=O)C1(C)C	34	1.7	7	-14	-19
19	CCOc1ccc2[nH]c(=O)c(CN(CCO)C(=O)CC)cc2c1	-28	nt	-2	nt	nt
20	COc1ccc(NC(=S)NC(NC(=O)c2cccc(Cl)c2)C(Cl)(Cl)Cl)c([N+](=O)[O-])c1 (centres undefined)	73*	nt	nt	nt	nt
21	O=C(c1ccccc1)C(Cn1cncn1)C(Sc1ccccc1)c1ccccc1 (centres undefined)	-6	nt	-17	nt	nt
22	Cc1cccnc1NC(=O)c1ccc(C(=O)c2ccccc2)cc1	-8	-1.3	-3	1	-3
23	O=C(COC(=O)C1CC1)Nc1ccccc1Sc1ccccc1	3	-0.3	-9	-18	-23
24	Cc1cc(C)n2nc(SCC(=O)N(C)C)nc2n1	-14	nt	1	nt	nt

nr	rRNA inh HTS RFP	Vif TR-FRET	Calb FLC	A1 inh	RanGTP-Imp inh
13	0.0	-26%	1	-2.0	-0.5
14	0.7	-1%	11	0.4	-5.8
15	3.3	-6%	-10	-1.7	2.7
16	nt	nt	-24	1.3	-0.1
17	-5.3	nt	2	-1.1	-0.4
18	13	-12%	24	0.6	2.7
19	nt	-5%	0	-0.4	-0.1
20	nt	-6%&6%	6	nt	3.4
21	nt	7%	-1	0.2	-4.9
22	1.1	4%	-4	1.6	-0.5
23	-0.4	-3%	46	0.2	0.3
24	nt	?	-12	0.2	0.8

# Next part
nr	Compound	T cruzi inh	MLL AF4-AF9 inh	Beta apoptosis	rRNA inh HTS	rRNA inh HTS OD600
25	Cc1n[nH]c(C)c1S(=O)(=O)N1CCc2ccccc2C1	-12	0.3	3	-1	10
26	Cc1ccc(C)c(N2CCN(S(=O)(=O)c3ccc4c(c3)CCC(=O)N4)CC2)c1	3	nt	nt	nt	nt
27	CCOCCCN(CC(=O)NC1CCCC1)C(=O)C(=O)Nc1ccc2c(c1)OCCO2	-11	1.9	-2	2	8
28	CC(C)(C)C(=O)COC(=O)c1cccc(NC(=O)c2ccco2)c1	-4	nt	3	nt	nt
29	C=CCn1c(CCCOc2ccc(Cl)cc2Cl)nnc1SCC(=O)Nc1nccs1	3	nt	-6	nt	nt
30	O=C(NCc1cccc(C(F)(F)F)c1)C1CCCN(c2ncccn2)C1 (centres undefined)	-9	nt	-12	nt	nt
31	CCCCOc1ccc(-c2ncc(N)cn2)cc1	24	1.4	-5	nt	nt
32	COc1ccc(-n2nc3c(N4CCC(C(=O)NCc5ccco5)CC4)nnc(C)c3c2C)cc1	37	nt	-1	nt	nt
33	CN(C)c1ccc(S(=O)(=O)N2CCCCC2)cc1NC(=O)COc1ccccc1F	1	4.8	0	5	0
34	CCOC(=O)c1[nH]c2ccc(OC)cc2c1NC(=O)NC(C)C	-2	nt	-9	nt	nt
35	C/C(=N\NC(=O)C(c1ccccc1)c1ccccc1)c1ccc(O)cc1	2	1.0	-6	4	2
36	Cc1nnc(SCc2ccccc2)n1N	-2	nt	nt	nt	nt

nr	rRNA inh HTS RFP	Vif TR-FRET	Calb FLC	A1 inh	RanGTP-Imp inh
25	-0.7	-4%	0	-0.5	1.3
26	nt	25%	?	nt	3.6
27	0.9	nt	4	-0.7	3.6
28	nt	-4%	-3	-1.1	1.5
29	nt	8%	4	-2.1	?
30	nt	18%	-6	0.0	-1.3
31	nt	3%	3	-0.8	-3.5
32	nt	nt	7	0.4	2.2
33	-1.3	nt	-2	-0.7	?
34	nt	0%	-3	-0.4	0.9
35	14	nt	-8	-0.8	-1.0
36	nt	2%	-17	0.7	-1.3

# More compounds follow:
nr	Compound	T cruzi inh	MLL AF4-AF9 inh	Beta apoptosis	rRNA inh HTS	rRNA inh HTS OD600
37	O=C(Nc1ccc(Cc2ccncc2)cc1)c1cccs1	-9	-5.6	-3	8	9
38	COc1ccc(S(=O)(=O)N2CCC(C(=O)Nc3ccc(OC)c(OC)c3)CC2)cc1C	7	nt	1	nt	nt
39	C=CCN(c1ccccc1)S(=O)(=O)c1ccc2c(c1)NC(=O)C(C)C(=O)N2 (centres undefined)	-4	4.2	5	3	3
40	O=C(CN1C(=O)COc2ccccc21)Nc1ccc2c(c1)OCCO2	-1	nt	6	nt	nt
41	CSCC(=O)N1CCC(n2nccc2NC(=O)CCCc2ccccc2)CC1	-1	-1.1	1	nt	nt
42	CCCC(=O)Nc1ccc(N2CCN(C(=O)c3ccccc3C)CC2)cc1	-1	nt	-6	nt	nt
43	O=C1CSCC(=O)N1c1ccccc1	-9	nt	0	nt	nt
44	Cc1nn(C(=O)c2ccco2)c(C)c1Sc1ccc(Br)cc1	-10	nt	-8	nt	nt
45	Cc1cccnc1NC(=O)c1cc2c(=O)oc3ccccc3c2s1	-4	nt	-5	nt	nt
46	O=C(Cc1ccccc1[N+](=O)[O-])NCc1ccccc1Cl	-6	nt	-6	nt	nt
47	CCCCN(CC)C(=O)C1CCCN(S(=O)(=O)c2cccc3nsnc23)C1 (centres undefined)	13	1.1	-6	-10	-11
48	COc1ccc(N2CCN(C3CCCCC3NS(=O)(=O)c3ccccc3)CC2)cc1 (centres undefined)	2	36*	8	-7	-5

nr	rRNA inh HTS RFP	Vif TR-FRET	Calb FLC	A1 inh	RanGTP-Imp inh
37	-1.0	10%	-19	-0.8	-0.6
38	nt	-9%	6	-0.3	-7.4
39	0.2	nt	-1	0.2	-1.6
40	nt	-2%	1	1.4	2.7
41	nt	-1%	-1	0.3	4.0
42	nt	30%	-5	0.7	-0.2
43	nt	-1%	-7	0.3	3.0
44	nt	5%	-1	1.0	0.0
45	nt	-7%	-6	-0.5	-3.1
46	nt	-2%	-8	-0.7	1.4
47	-1.0	nt	-19	1.1	2.6
48	4.5	-3%	-8	-1.2	5.7

# Random excerpt: four compounds from above, in no set order.
nr	Compound	T cruzi inh	MLL AF4-AF9 inh	Beta apoptosis	rRNA inh HTS	rRNA inh HTS OD600
47	CCCCN(CC)C(=O)C1CCCN(S(=O)(=O)c2cccc3nsnc23)C1 (centres undefined)	13	1.1	-6	-10	-11
44	Cc1nn(C(=O)c2ccco2)c(C)c1Sc1ccc(Br)cc1	-10	nt	-8	nt	nt
40	O=C(CN1C(=O)COc2ccccc21)Nc1ccc2c(c1)OCCO2	-1	nt	6	nt	nt
46	O=C(Cc1ccccc1[N+](=O)[O-])NCc1ccccc1Cl	-6	nt	-6	nt	nt

nr	rRNA inh HTS RFP	Vif TR-FRET	Calb FLC	A1 inh	RanGTP-Imp inh
47	-1.0	nt	-19	1.1	2.6
44	nt	5%	-1	1.0	0.0
40	nt	-2%	1	1.4	2.7
46	nt	-2%	-8	-0.7	1.4

# Later entries
nr	Compound	T cruzi inh	MLL AF4-AF9 inh	Beta apoptosis	rRNA inh HTS	rRNA inh HTS OD600
49	O=C1[C@@H]2C(Cc3ccc(O)cc3)NC3(C(=O)Nc4ccc(F)cc43)[C@@H]2C(=O)N1c1ccccc1 (some centres undefined)	-11	nt	0	nt	nt
50	Cc1ccc(N2CC(C(=O)NCCc3ccc(S(N)(=O)=O)cc3)CC2=O)cc1 (centres undefined)	-14	0.2	-2	6	3
51	O=C(CCCN1C(=O)C2CC=CCC2C1=O)Nc1cccc(F)c1 (centres undefined)	-2	-9.4	-1	2	6
52	CCC(C)N(C(=O)COC(=O)c1cc([N+](=O)[O-])ccc1N)C1CCS(=O)(=O)C1 (centres undefined)	-5	-1.0	-2	20	10
53	CC/C(Cc1ccccc1)=N/NC(=O)c1cccc(Br)c1	7	nt	-2	nt	nt
54	COc1ccccc1NC(=O)C1Cc2ccccc2CN1C(=O)c1ccco1 (centres undefined)	-5	-1.9	1	-2	4

nr	rRNA inh HTS RFP	Vif TR-FRET	Calb FLC	A1 inh	RanGTP-Imp inh
49	nt	-9%	8	0.0	3.2
50	0.8	-2%	-5	0.2	1.0
51	-2.5	3%	7	0.5	-0.9
52	3.5	7%	11	-1.8	?
53	nt	-11%	-2	-0.4	-8.0
54	2.9	nt	-3	1.2	0.0

# Assay outcomes: PubChem BioAssay, several laboratories
